Screening data deposited in PubChem by National Center for Advancing Translational Sciences (NCATS).
gsp agonist – agonists of gsp mutant (McCune-Albright syndrome). gsp mutant cells, cAMP HTRF, 30 min; control for the full effect not named in the record. Potency, µM (titrated, usually from 76.9 µM), for the others: top-dose activation (cAMP increase), most hits filed as activators. 0.13% of 340,000 active; active = well fitted activation curve with a large enough effect; inconclusive = small, poorly fitted or top-dose-only effect, or another doubt; inactive = no such curve, though single readings can be large or run the other way; cell line not stated here;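 also: phosphodiesterase inhibitor Ro 20-1724 added with compounds to block cAMP breakdown; potency is read from the fitted curve at half-maximal effect; nearly all actives have a fitted effect of over 60% in size; about a fifth of the inactives were tested at one dose only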
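Cells stably selected in G418 were plated at 2000/well, grown 16-24 hr, then given compounds in DMSO with the PDE inhibitor […] (300 uM solution added) for 30 min at 37C; cAMP was read by HTRF.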
Sfp PPTase inh – inhibitors of Bacillus subtilis Sfp phosphopantetheinyl transferase. Biochemical Sfp PPTase activity, qHTS. Potency, µM, for inactives: max response, negative = inhibition, usual class: inhibitors. 3.5% of 310,000 active. AID 1490; active = well fitted inhibition curve with a large enough effect; inconclusive = small, poorly fitted or top-dose-only effect, or another doubt; inactive = no such curve, though single readings can be large or run the other way;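 also: the enzyme is Sfp with the accession as filed and its product quenches rhodamine fluorescence; potency is read from the fitted curve at half-maximal effect; 0% = enzyme reaction without inhibitor and -100% = no enzyme wells; top concentration of the series not given in the record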
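Reaction rates are the 30-min fluorescence difference (ex 525, em 598 nm) in wells containing 15 nM Sfp, 5 uM rhodamine-CoA and 12.5 uM BHQ-2-YbbR at pH 7.6 with 10 mM MgCl2.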
TRPV1 potentiator – human TRPV1 potentiation; 0.02% of 320,000 active; TRPV1-expressing cells, Fluo-8 calcium influx, capsaicin EC20 potentiation; host cell line not named in the record; control for the full effect not named in the record; potentiation, % at 8.33 µM; active means potentiation above 80%; inconclusive means 30% to 80%; inactive means below 30%; also: 0% is about no effect
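Cells expressing TRPV1 were dye-loaded with Fluo-8 and read kinetically: 10 s baseline, 3 min after compound (agonist portion), then 2 min after EC20 capsaicin (allosteric enhancer portion). Calcium-bound dye fluorescence at 480/520 nm.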
ClpP mod – qHTS Assay for Activators of ClpP | ATP-dependent Clp protease proteolytic subunit (Bacillus subtilis (strain 168)), P80244 | purified B. subtilis ClpP, FRET peptide cleavage, 20 min | Potency, µM (doses to about 57.5 µM), without a hit: at the highest dose activity change, negative = active | 1.9% of 340,000 active | AID 651965, 2013; active = well fitted falling curve with a large enough effect; inconclusive = small, poorly fitted or top-dose-only effect; inactive = no such curve, though single readings can be large or run the other way; also: potency is read from the fitted curve at half-maximal effect; the source files actives as falling curves though it sought activators and does not explain the sign; nearly all actives have a fitted effect of over 65% in size; many hits overshoot -100%
Target sequence (P80244 whole entry, looked up): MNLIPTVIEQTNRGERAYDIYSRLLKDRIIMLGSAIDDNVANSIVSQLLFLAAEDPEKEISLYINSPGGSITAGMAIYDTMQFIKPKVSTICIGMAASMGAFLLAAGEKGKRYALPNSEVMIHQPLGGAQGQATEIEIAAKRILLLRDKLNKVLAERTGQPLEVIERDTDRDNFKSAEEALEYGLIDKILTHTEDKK
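ClpP 10 microg/mL final, pH 8 Tris/KCl buffer with BSA, glycerol, Tween-20; compound pinned in; FRET-FV substrate; RT 20 min; Ex320/Em430; ΔFRET vs ADEP 5.8 microM, DMSO, no enzyme.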
gsp antag – antagonists of gsp mutant (McCune-Albright syndrome); gsp-mutant cells, cAMP HTRF, 30 min; control for the full effect not named in the record; Potency, µM (doses to about 76.9 µM), without a hit: at the highest dose activity change, negative = inhibition, usual class: inhibitors; 0.4% of 340,000 active; AID 624288; active = falling curve of any shape with a large fitted effect; inconclusive = falling curve, mostly with a smaller effect; inactive = flat or rising curve; cell line not stated here;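 also: intracellular cAMP measured with PDE inhibitor Ro 20-1724 present during compound exposure; potency is read from the fitted curve at half-maximal effect; % is scaled to controls: 0 for no effect and ±100 for the full control effect; nearly all actives have a fitted effect of over 65% in size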
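G418-selected cells were plated in DMEM/10% FBS for 16-24 h at 37C, then treated with compounds plus the PDE inhibitor […] (300 uM solution added) for 30 min at 37C. Intracellular cAMP was measured by HTRF after 30 min lysis at room temperature.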
Menin-MLL FL inh – inhibitors of human menin-MLL interaction, wild-type MLL peptide; FP activity change, % at 61.4 µM; Fluorescence polarization, fluorescein-MLL peptide displacement from menin; 290,000 tested, under 10 active; inconclusive = falling polarisation curve, or a change in total fluorescence; inactive = total fluorescence flat and polarisation flat or rising; no compound was filed as active; the % refers to the polarisation; negative = inhibition;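 also: % of control where 0% means no effect; inhibitors lower the polarisation; unlabelled MLL peptide was the positive control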
D2 potentiator – potentiates the human D2 dopamine receptor allosterically; 0.23% of 360,000 active; P14416; DiscoveRx D2 beta-arrestin cells, luminescence, 90 min; 100% = 57 uM dopamine signal; potentiation, % (concentration not given with the values); AID 624464; active = potentiation of 50% or more; inconclusive = 30% to 50%; inactive = 30% or less;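 also: compound concentration not given in the record; tested on top of an EC20 dose of dopamine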
Target sequence (P14416 whole entry, looked up): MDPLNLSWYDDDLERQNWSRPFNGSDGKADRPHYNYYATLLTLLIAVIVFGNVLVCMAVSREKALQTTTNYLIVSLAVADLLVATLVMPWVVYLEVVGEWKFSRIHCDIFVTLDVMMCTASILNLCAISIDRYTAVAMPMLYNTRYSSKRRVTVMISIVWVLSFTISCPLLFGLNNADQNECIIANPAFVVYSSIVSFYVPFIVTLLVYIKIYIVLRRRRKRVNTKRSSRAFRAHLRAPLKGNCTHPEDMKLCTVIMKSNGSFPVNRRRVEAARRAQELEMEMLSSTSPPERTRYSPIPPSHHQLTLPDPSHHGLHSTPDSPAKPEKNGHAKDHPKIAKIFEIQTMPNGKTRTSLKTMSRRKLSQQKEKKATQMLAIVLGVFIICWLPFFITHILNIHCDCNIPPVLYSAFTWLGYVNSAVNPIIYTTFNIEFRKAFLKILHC
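PathHunter D2 cells, attached overnight at 37 deg C, received compound in DMSO plus dopamine at EC20 (50 nM final) for 90 min at 37 deg C. Beta-arrestin recruitment was read as luminescence after 1 h with detection reagent at ambient temperature.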
* marks the source's active call; other numbers are inactive results; ? = inconclusive; · = no result given; [ ] = dose if it differs, or a comment.

no. | Structure | gsp agonist | Sfp PPTase inh | TRPV1 potentiator | ClpP mod
1 | COC(=O)[C@]1(C)N[C@H](CN(C)S(=O)(=O)c2ccc(C(F)(F)F)cc2)[C@@H]2C(=O)N(C)C(=O)[C@@H]21 | · | · | · | -0.9%
2 | COc1ccc(C(=O)c2cnc3cc4c(cc3c2C)OCO4)cc1 | 11% | -9% | -10 | 0.2%
3 | CCOC(=O)Cc1ccc(NC(=O)c2cccc([N+](=O)[O-])c2)cc1 | 32% | 13% | -6 | 2.4%
4 | COC(=O)C(NC(C)=O)(Nc1ccc(C)cn1)C(F)(F)F (stereo not given) | ? | 23% | 26 | ·
5 | CC1(C)CC2CC(C)(CN2S(=O)(=O)c2ccc(N)cc2)C1 (stereo not given) | ? | 18% | -4 | -1.5%
6 | CCOC(=O)[C@H]1[C@H]2COc3ccc(OC)cc3[C@H]2N2C(=O)CNC(=O)[C@@]12C | -3% | · | -1 | 2.5%
7 | CCN(CC)CC#CCC(OC)(c1ccccc1)c1ccccc1 | 18%[15.4 µM] | 18% | 0 | -2.4%
8 | CCOc1ccc(NC(=S)N(CCc2ccncc2)C(C)C)cc1 | -9% | 50µM* | -1 | 0.0%
9 | CC1CN=C(NS(=O)(=O)c2ccccc2)N1 (stereo not given) | 2% | · | · | -2.8%
10 | COC(=O)c1ccc(OCC(=O)c2ccccc2OC)cc1 | 0% | 6% | 8 | 0.3%

no. | gsp antag | Menin-MLL FL inh | D2 potentiator
1 | 7% | · | -2
2 | ? | 0.4 | 8
3 | -1% | 0.7 | 12
4 | 6% | 1.9 | -6
5 | -13% | -0.4 | -14
6 | 3% | · | -3
7 | 9% | -0.4 | -5
8 | -7% | -2.1 | -6
9 | · | · | -11
10 | -3% | 2.2 | -6

Further records.
no. | Structure | gsp agonist | Sfp PPTase inh | TRPV1 potentiator | ClpP mod
11 | COC(=O)c1ccc(N=NN2CCCCC2)cc1 | 1%[15.4 µM] | 4% | -7 | ·
12 | O=C(C(NS(=O)(=O)c1cccc2nsnc12)c1ccccc1)N1CCN(c2ccccn2)CC1 (stereo not given) | -19% | 5% | 7 | -0.4%
13 | O=C(O)CN1C(=O)/C(=C\c2cccc(OCc3ccc(F)cc3)c2)SC1=S | -5% | -14% | -11 | 1.8%
14 | CCn1c(C)cc(/C=C2\NC(=O)N(Cc3ccccc3)C2=O)c1C | 1% | -2% | -11 | -0.5%
15 | CCCc1nc2nc(C)c(NS(=O)(=O)c3ccc(CC(C)C)cc3)c(=O)n2[nH]1 | -18% | 8% | 19 | 0.2%
16 | CCOc1cc(C(=O)Nc2nnc(S(=O)(=O)N3CCOCC3)s2)cc(OCC)c1OCC | ? | 13% | ? | -9.4%
17 | [N-]=[N+]=CC(=O)C(Cc1ccccc1)N1C(=O)c2ccccc2C1=O (stereo not given) | ? | 9% | 16 | -0.7%
18 | O=C(NCC1CCCN1S(=O)(=O)c1ccccc1)c1cccc(Cl)c1 (stereo not given) | 0% | · | -20 | 0.3%
19 | Cc1cccc(OCC(=O)N2CCN(C(=O)COc3ccc(Cl)cc3)CC2)c1 | 11%[15.4 µM] | -3% | -12 | ·
20 | C/C(=N\OCC(=O)Nc1ccc(OC(F)(F)F)cc1)c1ccc2c(c1)OCCO2 | 12%[15.4 µM] | 11% | -18 | -2.2%

no. | gsp antag | Menin-MLL FL inh | D2 potentiator
11 | · | -1.4 | -31
12 | -14% | 1.8 | 19
13 | -11% | 9.2 | -6
14 | -10% | -1.3 | -6
15 | -7% | -5.5 | 2
16 | -27% | 0.8 | -1
17 | 7% | 6.6 | -8
18 | -6% | · | -19
19 | ? | · | -7
20 | -7% | 5.9 | -4

Going on with the list:
no. | Structure | gsp agonist | Sfp PPTase inh | TRPV1 potentiator | ClpP mod
21 | COc1ccc(CCNC(=O)Oc2ccccc2)cc1OC | 1% | 4% | 28 | 0.3%
22 | COc1cc(NC(=O)C2CCCN(S(=O)(=O)c3ccc4c(c3)oc(=O)n4C)C2)cc(OC)c1 (stereo not given) | -13% | 12% | -1 | 0.4%
23 | O=C(/C=C/c1cccs1)N1CCN(c2ccccc2)CC1 | -4%[15.4 µM] | 4% | -8 | -2.1%
24 | CCOc1cccc(-n2nnnc2-c2ccc(OC)cc2)c1 | -31%[inhibitor] | -13% | 0 | -0.8%
25 | CC1=C(C(=O)OC(C)C)C(c2ccsc2)NC(=O)N1C (stereo not given) | -9% | 10% | -2 | 0.4%
26 | CCOc1ccccc1NS(=O)(=O)c1ccc(-n2cccn2)cc1 | -31%[inhibitor] | 0% | -4 | 0.9%
27 | COc1ccc(NC(=O)Nc2c(C)n(C)n(-c3ccccc3)c2=O)cc1OC | 7%[15.4 µM] | 11% | -11 | 1.1%
28 | O=C(Nc1ccc(Cl)cc1)OCCn1nnnc1C(c1ccccc1)N1CCOCC1 (stereo not given) | 3% | -4% | 11 | -2.1%
29 | CC1CCN(S(=O)(=O)N2CCC(C(=O)NC(C)c3ccccc3)CC2)CC1 (stereo not given) | 18% | · | · | 0.9%
30 | O=C(Cc1ccc(Cl)c(Cl)c1)NC1CCCCCC1 | ? | 0% | 1 | ·

no. | gsp antag | Menin-MLL FL inh | D2 potentiator
21 | 2% | -0.9 | -8
22 | -16% | 1.3 | -6
23 | 8% | 0.3 | -1
24 | 10% | 1.9 | 11
25 | 1% | 2.3 | -5
26 | 15% | -0.3 | -4
27 | -4% | 1.4 | -2
28 | -17% | 3.6 | 0
29 | · | · | -14
30 | -27% | 1.5 | -3

Other structures follow.
no. | Structure | gsp agonist | Sfp PPTase inh | TRPV1 potentiator | ClpP mod
31 | NCCCC[C@H](NC(=O)C1CCNCC1)c1nnc(CN)o1 | · | 1% | 18 | ·
32 | COc1ccc(CCNS(=O)(=O)c2ccc(OC)c(OC)c2)cc1OC | -2% | 26% | 4 | -2.0%
33 | COC(=O)C(=C/C=C/c1ccco1)C(=O)OC | -41%[inhibitor] | -1% | -3 | 1.1%
34 | Nc1nc(CN2CCN(c3ccccc3F)CC2)nc(Nc2ccccc2)n1 | -8% | 3% | -5 | -3.3%
35 | CN(Cc1nccn1C)C(=O)CC1C(=O)NCCN1Cc1ccc(F)cc1Cl (stereo not given) | -7% | 3% | 0 | -3.9%
36 | CC1(C)Cc2cccc(Oc3cc(NN4CCCCC4)c([N+](=O)[O-])cc3[N+](=O)[O-])c2O1 | -2% | 2% | 2 | -0.1%
37 | Cc1ccc(NC(=O)COc2ccc(-c3nnco3)cc2)cc1S(=O)(=O)N1CCOCC1 | 14% | 9% | 10 | ·
38 | CC(Sc1nc2scc(-c3ccccc3)c2c(=O)[nH]1)C(=O)NC(N)=O (stereo not given) | -15%[15.4 µM] | 0% | 16 | ·
39 | CC/C(O)=C1\C(=O)CC(C)(C)CC1=Nc1ccccc1C | -13% | 5% | 1 | -3.7%
40 | COc1ccc(F)cc1C1=CC(=O)C[C@H](c2ccc3c(c2)OCO3)C1 | · | · | -4 | -1.7%

no. | gsp antag | Menin-MLL FL inh | D2 potentiator
31 | · | -0.7 | ·
32 | -15% | 1.2 | -3
33 | -10% | -0.1 | 2
34 | -15% | 5.7 | -3
35 | 12% | -12 | -21
36 | -24% | 4.8 | -7
37 | ? | -1.6 | 8
38 | -9% | 4.1 | -6
39 | 1% | 3.7 | -6
40 | 5% | · | -5

Going on with the list:
no. | Structure | gsp agonist | Sfp PPTase inh | TRPV1 potentiator | ClpP mod
41 | CC(C)CC(NC(=O)c1ccc(Cl)cc1)C(=O)OCC(=O)c1ccc2c(c1)NC(=O)CO2 (stereo not given) | -30%[inhibitor] | 19% | -13 | 1.5%
42 | Cc1nc(Oc2ccccc2)c2ccsc2n1 | 13%[15.4 µM] | -20% | -8 | -0.1%
43 | O=C(C[C@H]1C[C@H](C(=O)N2CCOCC2)[C@@]2(CCC3CCCC3)c3[nH]c4cc(-c5ccco5)ccc4c3CCN2C1=O)NCc1cccc(C(F)(F)F)c1 | · | · | · | 4.2%
44 | CCOC(=O)C(C)Sc1ncnc2nc[nH]c12 (stereo not given) | 5% | -5% | -28 | -9.8%

no. | gsp antag | Menin-MLL FL inh | D2 potentiator
41 | 11% | 8.8 | -1
42 | 7% | 1.8 | -7
43 | -14% | · | -4
44 | 10% | -9.0 | 1

Among those listed so far, eight have fluorine.
no. | Structure | gsp agonist | Sfp PPTase inh | TRPV1 potentiator | ClpP mod
1 | COC(=O)[C@]1(C)N[C@H](CN(C)S(=O)(=O)c2ccc(C(F)(F)F)cc2)[C@@H]2C(=O)N(C)C(=O)[C@@H]21 | · | · | · | -0.9%
4 | COC(=O)C(NC(C)=O)(Nc1ccc(C)cn1)C(F)(F)F (stereo not given) | ? | 23% | 26 | ·
13 | O=C(O)CN1C(=O)/C(=C\c2cccc(OCc3ccc(F)cc3)c2)SC1=S | -5% | -14% | -11 | 1.8%
20 | C/C(=N\OCC(=O)Nc1ccc(OC(F)(F)F)cc1)c1ccc2c(c1)OCCO2 | 12%[15.4 µM] | 11% | -18 | -2.2%
34 | Nc1nc(CN2CCN(c3ccccc3F)CC2)nc(Nc2ccccc2)n1 | -8% | 3% | -5 | -3.3%
35 | CN(Cc1nccn1C)C(=O)CC1C(=O)NCCN1Cc1ccc(F)cc1Cl (stereo not given) | -7% | 3% | 0 | -3.9%
40 | COc1ccc(F)cc1C1=CC(=O)C[C@H](c2ccc3c(c2)OCO3)C1 | · | · | -4 | -1.7%
43 | O=C(C[C@H]1C[C@H](C(=O)N2CCOCC2)[C@@]2(CCC3CCCC3)c3[nH]c4cc(-c5ccco5)ccc4c3CCN2C1=O)NCc1cccc(C(F)(F)F)c1 | · | · | · | 4.2%

no. | gsp antag | Menin-MLL FL inh | D2 potentiator
1 | 7% | · | -2
4 | 6% | 1.9 | -6
13 | -11% | 9.2 | -6
20 | -7% | 5.9 | -4
34 | -15% | 5.7 | -3
35 | 12% | -12 | -21
40 | 5% | · | -5
43 | -14% | · | -4
